Lassa entry inh = inhibitors of Lassa virus binding or cell entry; Lassa virus pseudotype entry inhibition, cell reporter; control for the full effect not named in the record; Potency, µM (doses to about 37.9 µM), inactives show top-dose activity change, negative = inhibition, actives largely listed as inhibitors; actives 1.2% (n = 300,000); AID 540256; active means well fitted inhibition curve with a large enough effect; inconclusive means small, poorly fitted or top-dose-only effect, or effect the other way; inactive means flat fitted curve, though single readings scatter; tested in HEK293 cells; note: % is set by controls: 0 for no effect and ±100 for the full control effect; nearly all actives have a fitted effect of over 50% in size; luciferase read-out
Marburg entry inh = Marburg virus entry inhibition | Marburg virus pseudotyped entry inhibition, cell reporter; control for the full effect not named in the record; about a third of the inactives were read at about 46 µM | Potency, µM (top dose mostly 37.8 µM), inactives show at the top dose activity change, negative = inhibition, usual class: inhibitors | actives 1.8% (n = 300,000); active = well fitted inhibition curve with a large enough effect; inconclusive = small, poorly fitted or top-dose-only effect, or effect the other way; inactive = flat fitted curve, though single readings scatter; tested in HEK293 cells; about a fifth of its hits are not listed in these tables; note: % is set by controls: 0 for no effect and ±100 for the full control effect; luciferase read-out
Cruzain noTriton = cruzain (T. cruzi) inhibition without detergent | actives 2.3% (n = 200,000) | Potency, µM, inactives show max response, negative = inhibition, usual class: inhibitors | purified cruzain, Z-FR-AMC fluorescence, no detergent | P25779 | AID 1476; active = well fitted curve in the direction sought with a large enough effect; inconclusive = small, poorly fitted or top-dose-only effect, or another doubt; inactive = no such curve, though single readings can be large; an effect the other way counts as inactive or inconclusive;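 note: plate controls were enzyme without inhibitor for no effect and buffer without enzyme for full effect; nearly all actives have a fitted effect of over 40% in size; top concentration of the series not given in the record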
Target sequence (P25779 123-467 limits assumed): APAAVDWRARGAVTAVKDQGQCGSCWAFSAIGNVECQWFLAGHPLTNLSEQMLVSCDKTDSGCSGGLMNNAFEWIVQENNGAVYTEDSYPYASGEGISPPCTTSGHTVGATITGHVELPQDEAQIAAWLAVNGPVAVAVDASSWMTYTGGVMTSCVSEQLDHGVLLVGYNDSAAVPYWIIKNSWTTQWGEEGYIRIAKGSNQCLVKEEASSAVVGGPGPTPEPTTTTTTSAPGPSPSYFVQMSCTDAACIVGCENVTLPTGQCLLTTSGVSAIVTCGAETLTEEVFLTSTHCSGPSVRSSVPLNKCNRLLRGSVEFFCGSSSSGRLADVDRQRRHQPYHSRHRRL
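Purified cruzain at 1.5 nM, pre-incubated 15 min with compound at room temperature in 100 mM sodium acetate pH 5.5, 5 mM DTT, 0.00005% Triton X-100. Reaction started with 2 uM Z-FR-AMC; AMC fluorescence increase over 60 s gives rate.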
NS1 function inh = influenza NS1 inhibition | actives 0.4% (n = 270,000) | Potency, µM (highest dose often 46.1 µM), for the others: top-dose activity, positive = more growth | S. cerevisiae slowed by influenza A NS1, growth recovery by OD600; note: actives are rising curves; nearly all actives have a fitted effect of over 50% in size
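Compounds were scored for reversing the slow growth caused by influenza A NS1 in S. cerevisiae, measured by optical density at 600 nm. Assay medium contained 2% galactose at pH 6.0; NS1-free yeast of the same strain were the positive control.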
Cruzain Triton = cruzain (T. cruzi) inhibition with detergent. purified cruzain, Z-FR-AMC fluorescence, 0.01% Triton. AID 1478. Potency, µM, without a hit: max response, negative = inhibition, hits mostly inhibitors. P25779. actives 0.43% (n = 200,000); active = well fitted curve in the direction sought with a large enough effect; inconclusive = small, poorly fitted or top-dose-only effect, or another doubt; inactive = no such curve, though single readings can be large; an effect the other way counts as inactive or inconclusive;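 note: plate controls were neutral wells for no effect and buffer without enzyme for full effect; nearly all actives have a fitted effect of over 40% in size; top concentration of the series not given in the record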
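Enzyme 1.5 nM, Z-FR-AMC 2 uM, NaOAc 100 mM pH 5.5, DTT 5 mM, Triton X-100 0.01%; 15 min RT compound preincubation; kinetic ex360/em450, 60 s delta.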
StopGo reporter = lowers the luciferase signal of an FMDV 2A StopGo reporter. AID 1159524. actives 1.2% (n = 410,000). human cells with a luciferase reporter of 2A StopGo recoding; control for the full effect not named in the record. Potency, µM (highest dose often 57.9 µM), for the others: at the top dose signal change, negative = less light; active = well fitted falling curve with a large enough effect; inconclusive = small, poorly fitted or top-dose-only effect; inactive = no such curve, though single readings can be large or run the other way; tested in HEK293T cells; note: % is set by controls: 0 for no effect and ±100 for the full control effect; nearly all actives have a fitted effect of over 45% in size; luciferase light after 4 h
RE007 growth inh = less growth of the S. pombe RE007 Vpr strain; Potency, µM (series often up to 92.2 µM), for inactives: at the highest dose activity change, negative = less growth; S. pombe RE007 Vpr strain, BacTiter-Glo ATP luminescence, 24 h; control for the full effect not named in the record; actives 0.21% (n = 360,000); active = well fitted falling curve with a large enough effect; inconclusive = small, poorly fitted or top-dose-only effect; inactive = no such curve, though single readings can be large or run the other way;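 note: % is set by controls: 0 for no effect and ±100 for the full control effect; nearly all actives have a fitted effect of over 50% in size; the assay follows cell death caused by Vpr and the record does not say whether a fall means rescue or toxicity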
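Fission yeast strain RE007, carrying one chromosomally integrated HIV-1 vpr copy, was seeded at OD 0.01 in PMG+AL medium with 23 nL pinned compound. After 24 h at 30 °C and 99% humidity, viability was read by BacTiter-Glo luminescence.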
SARS PLP yeast = blocks SARS-CoV papain-like protease in a yeast assay | actives 0.19% (n = 330,000) | AID 485353 | S. cerevisiae expressing SARS-CoV PLpro, growth rescue; control for the full effect not named in the record | Potency, µM (series often up to 32.9 µM), without a hit: at the highest dose activity, positive = growth rescue; note: 0% is about no effect; nearly all actives have a fitted effect of over 55% in size; growth read by luminescence after 48 h
Starred values were filed as active, the others as inactive; ? = inconclusive; nt = no result given; & = joins results of further samples; [ ] = another dose, or the depositor's remark. Unless noted, calls come from the whole dose curve; as a rule, active means well fitted rising curve with a large enough effect; inconclusive means small, poorly fitted or top-dose-only effect; inactive means no such curve, though single readings can be large or run the other way. Potency is the fitted concentration of half-maximal effect. No enrichment for hits; 4.8% or so of the library scored in one or more.

Second line of a record – Lassa entry inh | Marburg entry inh | Cruzain noTriton | NS1 function inh | Cruzain Triton | StopGo reporter | RE007 growth inh | SARS PLP yeast
O=C(CC12CC3CC(CC(C3)C1)C2)NCC(c1ccc(F)cc1)N1CCOCC1 (stereo not drawn)
→ -11.0%[46.1 µM] | ? | nt | nt | nt | -5.5% | 12.4% | 0.3%
CN(Cc1ccsc1)C(=O)CCc1nnc(CCCc2ccccc2)o1
→ nt | nt | nt | -7.0% | nt | 62.5%[activator] | -7.7% | -1.5%
Cc1cnc(NC(=O)Cn2cnc3c2c(=O)n(C)c(=O)n3C)s1
→ 0.2% | 9.7%[46.1 µM] | nt | -4.9% | nt | -9.0% | 13.7% | 2.0%
COc1ccc(CCNc2ncnc3cc(OC)c(OC)cc23)cc1OC
→ ? | ? | nt | 4.5% | nt | 20µM* | 10.1% | 1.3%
Cc1ccc(F)cc1NC(=O)CSc1nc(-c2cccs2)cc(C(F)(F)F)n1
→ 3.6%[46.1 µM] | 4.2%[46.1 µM] | 0.6% | nt | -0.4% | -21.8% | nt | nt
Cc1cccc(NS(=O)(=O)c2cc3c(cc2C)N(C)CCO3)c1
→ nt | nt | nt | 8.6% | nt | 70.2%[activator] | -3.8% | -0.9%
Cc1ccc(NC(=O)CC(O)(C(F)(F)F)C(F)(F)F)c(Br)c1
→ 1.5% | 0.7% | 0.8% | -30.3% | -3.7% | nt | -6.5% | -25.7%
O=C(CSc1nccn1-c1ccc(F)cc1)Nc1ccc(OC(F)(F)F)cc1
→ -29.6%[46.1 µM] | nt | ? | nt | -9.7% | -17.8% | nt | nt
O=c1cc(O)c2c(=O)n(-c3ccccc3)c3c(c2o1)CCCCCC3
→ 14.5% | ? | -18.3% | -4.7% | -8.8% | -29.4% | -33.7% | ?
Cc1cc(C)cc(OCC(=O)N/N=C/c2ccco2)c1
→ 1.6% | -0.7%[46.1 µM] | nt | -11.6% | nt | 7.7% | 2.9% | -1.6%
O=C(CC1C(=O)NCCN1C(=O)Nc1ccccc1)Nc1cccc(C(F)(F)F)c1 (stereo not drawn)
→ ? | -0.7% | ? | 9.4% | -5.5% | -38.8% | -0.1% | -4.4%
O=C(C[C@@H]1NS(=O)(=O)OC2CCCCC21)c1ccccc1 (stereo partly drawn)
→ nt | nt | nt | 6.1% | nt | 17.1% | 19.8% | 1.6%
COC(=O)CSC1=C(C#N)C(c2ccc(C)cc2)C2=C(CCCC2=O)N1 (stereo not drawn)
→ 11.0% | 21.5% | 2.8% | -4.4% | -3.2% | 0.0% | -3.2% | 3.9%
Cc1cc(C)c2cc(CN(CCCO)S(=O)(=O)c3ccccc3F)c(=O)[nH]c2c1
→ -11.4%[46.1 µM] | -5.2%[46.1 µM] | nt | 7.3% | nt | -1.3% | -16.8% | 0.3%
CCOC(=O)c1sc(NC(=O)c2nc(SCC)ncc2Cl)c(C(=O)OCC)c1C
→ 23.4%[46.1 µM] | 21.9%[46.1 µM] | -2.1% | nt | -0.4% | -16.0% | nt | nt
Cc1ccc(N2C(=O)CC(N(O)C3CC(=O)N(c4ccc(C)cc4)C3=O)C2=O)cc1 (stereo not drawn)
→ 0.2% | ? | 8.6% | 20µM* | 1.0% | -5.0% | 4.4% | -4.8%
CCc1nc(SCC(=O)NNC(=O)C2CCCCC2)c2ccccc2n1
→ 0.5% | 10.1% | 0.6% | 20.5% | -1.0% | 26.5% | 6.2% | 0.1%
O=c1c2ccc(Cl)cc2[nH]c(=S)n1CCCN1CCOCC1
→ -6.3% | 17.2%[46.1 µM] | nt | nt | nt | 0.0% | 7.3% | 12.7%
CCOc1ccc(C(C)NC(=S)NC2CCCCC2)cc1OCC (stereo not drawn)
→ -16.0% | -5.1%[46.1 µM] | nt | nt | nt | -2.8% | 5.9% | 21.4%
CC(=O)Nc1ccccc1-c1nc2ccccc2n(C(C)C(=O)Nc2cc(Cl)ccc2C)c1=O (stereo not drawn)
→ 1.5%[46.1 µM] | 4.1%[46.1 µM] | -6.2% | nt | -1.9% | -17.8% | nt | nt
COc1ccc(CC(=O)Nc2cccc(SC)c2)cc1
→ -8.2% | -0.5% | -5.3% | -35.0% | -2.3% | 10.1% | 32.6% | -14.0%
COc1cc2nc(CN(CCC(C)C)Cc3nc4cc(OC)c(OC)cc4c(=O)[nH]3)[nH]c(=O)c2cc1OC
→ 22.9% | ? | ? | 0.3% | -0.5% | 0.0% | 11.7% | -7.4%
COc1ccc(S(=O)(=O)N2CCCCCC2)cc1C(=O)NCc1ccccc1Cl
→ ? | -1.2% | nt | nt | nt | 6.4% | -2.9% | 2.1%
COc1cc(C)c(C)cc1S(=O)(=O)N1CCCCC1c1cccnc1 (stereo not drawn)
→ 0.0% | 0.7%[46.1 µM] | -4.3% | -32.9% | 0.7% | -4.1% | 11.3% | -9.3%
O=C(/C=C/Nc1ccc(S(=O)(=O)Nc2ncccn2)cc1)c1ccc(Cl)c(Cl)c1
→ 27.4% | 22.7% | 31.6µM* | 4.7% | -4.5% | -19.7% | 5.0% | ?
CCN(CC)S(=O)(=O)c1ccc(C)c(NC(=O)CNc2cccc(S(=O)(=O)N3CCCC3)c2)c1
→ -28.3%[46.1 µM] | -21.4% | nt | nt | nt | ? | 1.3% | 2.1%
Cc1ccc(SCc2cn3cc(Cl)ccc3n2)cc1
→ ? | ? | nt | 0.1% | nt | 15.4% | ? | -10.6%
COc1ccc(NC(=O)CSc2nnc(Cn3cnc4ccccc43)o2)cc1
→ 1.8% | 11.5%[46.1 µM] | nt | nt | nt | 5.9% | -6.9% | 0.2%
O=C(Nc1cccc(O)c1)c1ccccc1
→ 8.5% | ? | -1.6% | -4.2% | -0.5% | 38.0%[activator] | -18.3% | -2.9%
CC1CCCCN1S(=O)(=O)c1ccc(C(=O)Nc2nnc(C3CC3)o2)cc1 (stereo not drawn)
→ ? | 2.4%[46.1 µM] | nt | -20.8% | nt | 8.0% | -1.8% | -1.9%

The final 3 compounds of the part before lead into the next:
Second line of a record – Lassa entry inh | Marburg entry inh | Cruzain noTriton | NS1 function inh | Cruzain Triton | StopGo reporter | RE007 growth inh | SARS PLP yeast
COc1ccc(NC(=O)CSc2nnc(Cn3cnc4ccccc43)o2)cc1
→ 1.8% | 11.5%[46.1 µM] | nt | nt | nt | 5.9% | -6.9% | 0.2%
O=C(Nc1cccc(O)c1)c1ccccc1
→ 8.5% | ? | -1.6% | -4.2% | -0.5% | 38.0%[activator] | -18.3% | -2.9%
CC1CCCCN1S(=O)(=O)c1ccc(C(=O)Nc2nnc(C3CC3)o2)cc1 (stereo not drawn)
→ ? | 2.4%[46.1 µM] | nt | -20.8% | nt | 8.0% | -1.8% | -1.9%
O=c1c2c3n(c(=O)nc2[nH]n1-c1ccccc1)CCCCC3
→ 12.7% | 13.1% | -0.1% | 2.0% | 0.1% | 24.5% | 0.4% | 1.4%
COc1ccc(NC(=O)CC2SC(=Nc3ccccc3)NC2=O)cc1 (stereo not drawn)
→ 22.6% | -0.4% | 0.3% | 4.2% | 0.8% | -17.9% | 4.3% | -6.1%
Cc1ccc(C(=O)Nc2ccccc2N2CCCC2)cc1
→ -2.8% | -5.5% | nt | -12.8% | nt | -5.6% | 7.5% | 0.0%
COc1ccc(NC(=O)C(=O)NCC2CCCN2S(=O)(=O)c2cccs2)cc1 (stereo not drawn)
→ ? | ? | nt | nt | nt | -18.3% | 5.5% | 0.9%
CC(=O)c1cccc(NC(=O)c2onc(C)c2Cl)c1
→ nt | nt | 8.3% | -0.5% | 4.5% | 3.8% | -4.9% | 5.4%
Cc1cc(C)nc(SCC(=O)Nc2ccc(S(=O)(=O)Nc3nccs3)cc2)n1
→ 18.3% | 14.3% | 10.0% | 3.2% | 2.6% | 59.5%[activator] | 3.8% | -1.1%
COc1ccccc1C(=O)N1CCCC1(C#N)c1ccccc1 (stereo not drawn)
→ 0.7% | ? | 1.4% | 8.0% | -4.5% | -4.1% | 10.7% | 0.3%
COc1ccc(S(N)(=O)=O)cc1C(=O)NCCCN1CCN(c2ccccc2OC)CC1
→ 0.8% | 21.4% | 3.9% | 2.6% | 0.5% | -17.5% | 1.7% | -6.0%
Cc1ccc(N(CC(C)C)S(=O)(=O)c2nnc(NC(=O)C(C)C)s2)cc1
→ 3.9%[46.1 µM] | nt | 5.7% | nt | -6.2% | -10.7% | nt | nt
Cc1nn(C)cc1C(=O)NNC(=S)Nc1ccccc1
→ ? | ? | -0.3% | 4.2% | 4.4% | 47.6%[activator] | -10.8% | -1.3%
Cc1ccc(NC(=S)N/C(=N/S(=O)(=O)c2ccccc2)c2ccccc2)cc1
→ ? | -1.2%&1.7% | -3.0% | -8.2% | 2.0% | 23.1%&57.6% | -16.1%&-28.0% | ?
CC(CC(=O)NC1CCSC1=O)c1ccccc1 (stereo not drawn)
→ 9.3% | 3.4% | -15.5% | 1.3% | -3.2% | 4.5% | 6.2% | 1.5%
Cc1cc(OCc2ccc(F)cc2)nc(-c2ccccc2O)n1
→ 1.1% | -22.9% | -9.4% | 5.2% | -1.5% | -4.9% | -2.9% | -5.8%
COc1cccc(-c2cc(C(=O)N/N=C/c3ccco3)c3ccccc3n2)c1
→ ? | ? | nt | ? | nt | -20.5% | 13.2% | -3.9%
CC(Sc1nnc(-c2ccccc2)c(-c2ccccc2)n1)C(=O)N1CCc2ccccc21 (stereo not drawn)
→ ? | 11.2µM* | ? | 18.9% | -2.8% | ? | 0.0% | 13.9%
Cc1oc(-c2ccccc2Cl)nc1CS(=O)(=O)CC(=O)NCCN1CCOCC1
→ nt | nt | nt | 0.7% | nt | -14.9% | 0.7% | 0.2%
COc1cccc(-c2nnc(NC(=O)c3ccc(S(=O)(=O)N(CC(C)C)CC(C)C)cc3)o2)c1
→ 7.08µM* | 1.26µM* | -21.0% | -7.6% | 7.4% | ? | -3.4% | -11.4%
COc1cccc(N(C(=O)c2ccco2)C(C(=O)NC2CCCC2)c2ccc(N(C)C)cc2)c1 (stereo not drawn)
→ -11.1% | -17.0%&-17.0% | -11.3% | -19.0% | -2.9% | -21.2% | -26.3% | ?

Assay outcomes from PubChem.
